# Calb FLC: C. albicans growth modulation with fluconazole. C. albicans CaCi-2 (fluconazole-resistant clinical isolate) + fluconazole, Alamar Blue growth, 48 h. growth inhibition, % (concentration not given with the values). actives 0.57% (n = 300,000);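 active = most replicates above 75%; inconclusive = exactly half above 75%; inactive = most below 75%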;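 also: all wells also contain fluconazole at 8 µg/ml as a sub-toxic cotreatment; 0% = median of DMSO wells and 100% = median of geldanamycin control wells; wells of about 8 µL received 7.5 nL stock; the first replicate is given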
# rRNA inh HTS: inhibitors of bacterial rRNA selective over humanized ribosomes. GFP signal change (wild-type ribosome), % (no concentration beside the values). E. coli WT GFP vs humanized-ribosome RFP mutants, fluorescence, 24 h; stronger effect = lower value; DMSO median 0, no signal -100. actives 1.6% (n = 350,000);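 active = significant combined selectivity score with lowered wild-type GFP, culture density cut under 30%, mutant RFP and density less affected; inactive = any of these conditions unmet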; also: one replicate is shown; some compounds called inactive have numbers as strong as hits
# Vif A3G: inhibitors of Vif binding to APOBEC3G peptide, primary screen, biochemical, TR-FRET, GST-Vif 1-94, biotin-A3G peptide, dose response retest (AID 1117319); TR-FRET GST-Vif / biotin-A3G peptide binding; higher % means a stronger effect; test concentration not given here; strong numbers were not always called active; inhibition, %, or IC50 in µM where a hit was titrated; actives 0.57% (n = 260,000);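 active = above the screen mean plus three standard deviations and confirmed in dose response; inconclusive = results disagree or hit not tested in dose response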;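 also: Vif residues 1-94 fused to GST binding biotinylated APOBEC3G peptide 110-148; 0% = full assay without inhibitor and 100% = GST in place of GST-Vif; retest series ran down from 100 µM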
# RanGTP-Imp inh: disruptors of Ran-importin-beta complex formation – biochemical, FRET, CFP-Ran, YFP-importin-beta, homogeneous, primary screen; AID 2216; inhibition, % (no concentration beside the values); cell-free CFP-Ran/YFP-importin-beta FRET ratio; actives 1.1% (n = 300,000);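 active = most replicates above 15%; inconclusive = exactly half above 15%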;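 also: 0% = DMSO wells and 100% = Ran loaded with GDP instead of GTP; wells of about 40 µL received 100 nL stock; the first replicate is given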
# MLL AF4-AF9 inh: blocks AF4 peptide binding to human AF9. P42568. AlphaScreen, biotin-AF4 peptide binding to FLAG-AF9. inhibition, % at 10 µM. actives 0.47% (n = 350,000). AID 651704;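 active = every replicate reaching a set inhibition limit, whatever the replicate mean, cut at about 25% in these data; inconclusive = mean inhibition reaches that limit but some replicates miss it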;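 also: 0% = plate neutral control median and 100% = total signal loss; the record names both 10 and 1 µM as test concentration; the first replicate is given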
# Target sequence (P42568 whole entry, looked up): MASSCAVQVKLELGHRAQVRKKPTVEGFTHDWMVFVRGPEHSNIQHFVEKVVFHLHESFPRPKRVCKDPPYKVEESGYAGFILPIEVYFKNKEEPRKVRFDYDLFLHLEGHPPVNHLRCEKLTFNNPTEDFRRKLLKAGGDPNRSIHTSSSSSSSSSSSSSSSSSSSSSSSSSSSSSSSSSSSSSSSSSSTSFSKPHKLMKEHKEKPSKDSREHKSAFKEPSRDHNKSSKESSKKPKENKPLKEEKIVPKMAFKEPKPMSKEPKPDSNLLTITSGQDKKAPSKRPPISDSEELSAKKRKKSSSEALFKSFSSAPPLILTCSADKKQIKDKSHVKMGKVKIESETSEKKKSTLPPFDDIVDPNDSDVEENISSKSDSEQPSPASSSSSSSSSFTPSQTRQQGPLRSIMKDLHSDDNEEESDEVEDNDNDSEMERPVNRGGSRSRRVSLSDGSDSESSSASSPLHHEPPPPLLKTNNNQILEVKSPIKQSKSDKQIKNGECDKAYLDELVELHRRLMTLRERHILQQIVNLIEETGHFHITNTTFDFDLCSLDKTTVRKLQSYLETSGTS
# A1 inh: inhibitors of the anti-apoptotic protein A1, read as caspase activation. actives 0.066% (n = 330,000). AID 2462. caspase activation, % (no concentration beside the values). MEF A1-2A-BIM cells, Caspase-Glo 3/7 luminescence, 3 h; percent of clofoctol response, vehicle zero;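 active = over half of replicate activation scores above 10%, or exactly half above 10 with the replicate mean above 10; inconclusive = replicate mean below 10 yet half the replicates above 10; inactive = over half of replicates below 10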;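 also: wells of about 30 µL received 50 nL stock; many hits fall short of the cut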
# Beta cell apopt: beta cell apoptosis inhibition. INS-1E cytokine-induced death, ATP luminescence, 48 h; percent of positive-control rescue, neutral wells zero. protection from apoptosis, % (no concentration beside the values). actives 0.8% (n = 300,000). AID 435005;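 active = all replicates at 75% or more, or half of them and the mean; inconclusive = half reach 75% but not the mean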;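 also: 0% = cytokine-treated negative control wells and 100% = positive control rescue; higher means more ATP so stronger rescue from cytokine killing; wells of about 40 µL received 100 nL stock; the first replicate is given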
# T cruzi repl: blocks replication of Trypanosoma cruzi; T. cruzi beta-gal in NIH3T3, luminescence, 90 h; inhibition, % (test concentration not listed); actives 1.4% (n = 300,000);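 active = mean inhibition across valid replicates above about 55%, limit read from the data; inconclusive = mean below that limit but half or more replicates reach it; inactive = mean below it, under half of replicates reach it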;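 also: signal also drops with host cell toxicity which is not excluded here; 0% = plate median of DMSO wells and 100% = zero luminescence signal; higher percent means less beta-gal luminescence so fewer parasites; stock transfer was 50 nL into about 50 µL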
# rRNA inh HTS OD600: recorded beside rRNA inh HTS, whose call it bears; OD600 change, %; measured here: OD600 growth;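 optical density of the mix in the first replicate; 0 = DMSO median and -100 = no signal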
# rRNA inh HTS RFP: second read-out of rRNA inh HTS, no call of its own (marks repeat the call); RFP signal change, %; measured here: RFP humanized mutant strains;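 first replicate; 0 = DMSO median and -100 = no signal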
# * = called active by the depositor; ? = inconclusive; / = no result given; & = joins results of further samples. Only part of the results is shown (hit frequency here may not be typical).
SMILES,Calb FLC,rRNA inh HTS,rRNA inh HTS OD600,rRNA inh HTS RFP,Vif A3G,RanGTP-Imp inh,MLL AF4-AF9 inh,A1 inh,Beta cell apopt,T cruzi repl
CCCCNC(=O)C1CCC(CNc2c(N3CCC(C)CC3)c(=O)c2=O)CC1 (stereo unspecified),0,5,-4,-2.2,18%,2.8,-13,0.2,4,6
CC(C)=CCC(C)(C)C1OCCN1C(=O)Nc1ccccc1 (stereo unspecified),-12,/,/,/,0%,-2.4,/,-1.5,-1,-2
COc1c(C(C)C)oc2cc3oc(=O)ccc3cc12,0,-48,-67,-12,6%,?,2.8,-0.8,2,0
COc1ccccc1NC(=O)/C=C\C(=O)O,29,12,16,1.6,/,-2.5,-1.7,0.1,-5,7
CCOc1cc(-c2cc(N)n[nH]2)cc(OCC)c1OCC,-3,/,/,/,28%,-1.7,-2.2,-1.2,-8,-33
Cc1ccc(-c2noc(CN(C(=O)CCCCCN3C(=O)c4ccccc4C3=O)C(C)C)n2)cc1,1,/,/,/,6%,0.5,/,1.3,2,27
CCCc1cc(=O)oc2cc(C)c(CN3CCCC3)c(O)c12,-6,/,/,/,3.5µM*,2.9,/,2.0,-6,19
CCOC(=O)C1(Cc2cccc(Cl)c2)CCCN(C(=O)CCOC)C1 (stereo unspecified),-23,2,4,0.7,1%,-1.0,-2.5,-0.5,-6,-4
Cc1cc(C)c2nc(-c3ccccn3)cc(C(=O)Nc3ccc(S(=O)(=O)Nc4onc(C)c4C)cc3)c2c1,10,/,/,/,/,-4.4,/,1.5,-2,7
CC1(C)CC(=O)C2=C(C1)NC(=O)CC2c1ccc(N(CCC#N)CCC#N)cc1 (stereo unspecified),-1,6,7,-0.7,1%,0.8,-30,0.5,-5,-10
CCCCn1nc2cc(C(=O)NC3CCc4ccccc43)ccc2c1OCC (stereo unspecified),-4,-4,-17,-6.0,-8%,-3.5,2.7,-2.5,-1,8
COc1ccc(CN2C(=O)c3ccccc3C2=O)cc1C(=O)Nc1ccccc1N1CCOCC1,38,-4,-1,-1.8,0%,1.6,3.9,1.2,-1,-24
Cc1ccccc1-c1noc(-c2ccccc2C(=O)NCC2CCCO2)n1 (stereo unspecified),-5,-12,-27,-1.3,5%,2.3,-6.0,-0.7,2,/
CC(C(=O)N1CCCC1)N1CCN(S(=O)(=O)c2ccc(OC(F)(F)F)cc2)CC1 (stereo unspecified),/,-1,1,-2.7,/,/,0.7,-0.3,-5,/
Oc1ccc(Nc2nc(-c3ccccc3)nc3ccccc23)cc1,-15,-57,-78,-18,-1%,-1.5,/,-0.9,5,-1
Cc1cccc(OCCNC(=O)CSc2ccc(C(F)(F)F)cc2[N+](=O)[O-])c1,-3,/,/,/,31%,-3.5,/,-1.0,3,4
COc1ccccc1CCC(=O)OCC(=O)NC1CCCCC1,19,-3,5,0.2,-3%,2.4,1.1,1.7,-4,-15
CC(NS(=O)(=O)c1ccccc1)C(=O)Nc1ccc(S(N)(=O)=O)cc1 (stereo unspecified),6,/,/,/,23%,2.6,/,-0.5,0,-21
CC(=O)c1c[nH]c(C(=O)NCC2CCCO2)c1 (stereo unspecified),-3,/,/,/,1%,-1.9,/,/,-9,-4
O=C(Cc1c(F)cccc1Cl)OCC(=O)N1CCN(c2ccccc2)CC1,/,-21*,-15*,-0.4*,/,/,1.9,-1.1,3,/
CC(=O)Nc1cccc(NC(=O)CSc2ccc(-c3cccnc3)nn2)c1,0,-26*,-11*,-8.1*,6%,-4.1,-1.0,0.2,-6,-16
CC(C)NC(=O)C(C)N1CCN(S(=O)(=O)c2ccc3ccccc3c2)CC1 (stereo unspecified),6,7,-14,-1.1,/,6.3,2.7,-0.1,-6,-2
Cc1ccc(NC(=O)Cn2nc(-c3ccccc3)nc2-c2ccccc2)c(C)c1,-2,7,16,7.6,/,1.8,0.1,0.0,9,27
COC(=O)c1c(C)[nH]c(C(=O)CC#N)c1C,-2,11,7,7.2,3%,0.0,1.6,-0.8,-1,-11
COc1ccc(CCNC(=O)C(=O)NCCOc2ccccc2Cl)cc1OC,0,/,/,/,11%,0.2,/,0.4,/,2
O=C1N=C(N2CCCCC2)S/C1=C\c1ccc(Br)cc1,16,4,0,-0.9,0%,6.2,-4.5,0.3,-7,3
CCOC(=O)C1Sc2ccccc2NC1=O (stereo unspecified),-13,9,7,4.9,/,-2.5,-1.0,0.4,-1,-13
CC(C)CC(=O)N1CCN(S(C)(=O)=O)CC1,/,/,/,/,4%,3.8,/,0.7,-2,-15
Nc1cc(Br)c(N)c(Br)c1,-16,/,/,/,?,1.6,/,0.5,8,26
COc1ccccc1/C=N/NC(=O)c1nnn(-c2nonc2N)c1CN(C)c1ccccc1,/,-2,-4,4.2,/,-0.1,1.1,0.0,0,-4
O=C1OCCC1Sc1nc2ccccc2s1 (stereo unspecified),4,/,/,/,32%,0.6,/,-0.4,1,-18
CCC(=O)NC(Nc1c(C)n(C)n(-c2ccccc2)c1=O)C(Cl)(Cl)Cl (stereo unspecified),-24,-2,1,-1.5,/,5.5,0.5,0.1,-9,-15
O=C(NCC1CCCO1)c1cc2c([nH]c3ccccc32)c(-c2cccc(Cl)c2)n1 (stereo unspecified),4,/,/,/,/,2.2,/,-1.0,62,50
COc1ccc(-c2ccc3oc(-c4ccc(OC)cc4)c(C#CCCO)c3c2)cc1,5,-1,10,-0.3,/,-4.2,/,-0.6,/,2
COc1cc(CN2CCC(N3CCC(C(=O)N4CCCC4)CC3)CC2)cc2c1OCO2,-1,1,-8,-4.3,16%,0.6,1.4,-0.1,1,4
COc1ccc2cc(C(=O)N/N=C/c3cc(OC)c(OC)c(OC)c3)[nH]c2c1,/,-43,-71,-0.7,-7%,2.0,0.4,0.6,5,-3
CCOc1ccc(CC(=O)Nc2sc(Cc3ccccc3)cc2C(N)=O)cc1OCC,7,11,14,1.3,-24%,0.3,1.2,0.7,-4,12
O=Cc1cn(CC(=O)N2CCCc3ccccc32)c2ccccc12,1,/,/,/,-8%,-1.9,/,-2.1,-4,5
O=C(Cc1ccccc1)N1CCN(c2ccccc2F)CC1,-3,4,2,-2.1,-1%,-1.5,0.3,1.2,5,-12
COc1ccc(-n2c(Cc3cccn3C)nnc2SCC(=O)NC2CCCCC2)cc1,-6,2,9,-0.6,24%&-4%,4.1,5.8,-1.4,0,7
CCOc1cc(/C=N/NC(N)=O)cc(Br)c1OCc1ccccc1F,0,/,/,/,2%,-0.9,/,0.7,2,0
CC(=O)Nc1cccc(C(=O)N(Cc2ccccc2)Cc2ccccc2)c1,-8,-26,-40,-3.3,/,2.3,-2.3,0.0,-4,3
CC1CCCC(NC(=O)CSc2ncnc3ccccc23)C1C (stereo unspecified),/,-11,-24,-0.7,/,/,-0.1,-0.8,-6,/
Cc1ccccc1NC(=O)Cn1c(=O)n(Cc2ccccc2)c(=O)c2c(C)c(C)sc21,-8,/,/,/,/,0.3,/,0.0,0,0
Cn1c(=O)c(C(=O)CN2CC(=O)Nc3ccccc32)c(N)n(Cc2ccccc2)c1=O,6,-1,11,-0.2,20%,1.5,-1.4,1.0,-7,-13
O=P(O)(C(O)c1ccccc1)C(O)c1ccccc1 (stereo unspecified),11,2,2,0.3,/,-0.3,-1.3,-0.7,4,-21
CCN(C(=O)CN1CCN(c2ccc(OC)cc2)CC1)c1c(N)n(Cc2ccccc2)c(=O)[nH]c1=O,-3,/,/,/,21%,1.5,/,-0.4,2,5
COC(=O)CC1C(=O)NCCN1C(=O)CSc1nnc(Nc2ccc(C)cc2)s1 (stereo unspecified),-1,/,/,/,2%,1.3,/,0.2,-2,-1
CC(C)CN(C(=O)COc1cccc(-n2cnnn2)c1)C1CCS(=O)(=O)C1 (stereo unspecified),1,5,6,-1.4,/,1.1,-2.2,-0.4,1,-5
Brc1ccc(OCCOc2cccc3cccnc23)cc1,-4,-10,1,5.7,-9%,3.1,-3.0,0.8,-6,0
CC1=C(C(=O)OCc2ccccc2)C(c2ccc3ccccc3c2)NC(=O)N1CCCCCC(=O)O (stereo unspecified),8,/,/,/,0%,-11,-14,-0.4,-10,-1
COc1ccc(N2C(=O)c3ccccc3NC23CCCCC3)cc1,4,8,-1,-2.4,-5%,-2.4,3.2,-2.8,-5,11
Cc1ccc(S(=O)(=O)Nc2ccccc2-c2ccccc2)cc1,10,/,/,/,0%,0.8,/,-0.9,36,-2
N#Cc1c(N)nc2c(c1-c1ccncc1)CCCCC2,?,/,/,/,-2%,?,/,-0.7,-5,-22
CN1c2cccc3cccc(c23)N(C)C1c1cccs1,17,/,/,/,4%,2.3,/,0.2,54,25
N#Cc1c(NC(=O)C(=O)NCCCN2CCOCC2)sc2c1CCCC2,2,3,2,-1.0,/,-1.0,-0.6,1.3,-6,-7
COc1cccc(/C=C/C(=O)OCC(=O)NCC2CCCO2)c1OC (stereo unspecified),2,/,/,/,/,-0.1,/,0.9,-9,-10
C/C(=N\NC(=O)Cc1ccccc1)c1ccc(Br)s1,5,20,16,1.5,3%,6.1,1.0,-0.3,-8,-14
Cc1cccc(NC(=S)N2CCOCC2)c1C,-1,/,/,/,-4%,-2.6,/,0.6,0,-1
CC1(c2cccc(Br)c2)NC(=O)NC1=O (stereo unspecified),1,2,9,-1.3,/,-3.3,-2.9,0.1,1,-13
# Next part
SMILES,Calb FLC,rRNA inh HTS,rRNA inh HTS OD600,rRNA inh HTS RFP,Vif A3G,RanGTP-Imp inh,MLL AF4-AF9 inh,A1 inh,Beta cell apopt,T cruzi repl
CCOC(=O)c1ccc(NC(=S)N2CCSC2c2ccc(Cl)cc2)cc1 (stereo unspecified),7,-18,-32,7.1,7%,-4.8,-18,-0.4,4,0
CC1Oc2ccccc2N(CC(=O)NCc2cccs2)C1=O (stereo unspecified),31,/,/,/,-1%,4.3,/,-0.4,-7,0
Cc1ccc(C)c(N2C(=O)c3cc(N4CCOCC4)c([N+](=O)[O-])cc3C2=O)c1,-6,17,0,2.8,-5%,-1.9,5.5,-0.8,-1,-10
O=C(NCc1nc2ccccc2[nH]1)C1=C[C@@H](c2ccc3c(c2)OCO3)C[C@@H](OCc2ccc(CO)cc2)O1,1,/,/,/,14%,0.2,1.9,/,/,8
CCOC(=O)c1ccc(N2CCOCC2)c(NC(=O)COCC(=O)O)c1,7,4,7,-1.3,-5%,-0.5,-7.3,-0.9,-1,-4

# Screening results: PubChem, several laboratories
